Screens from PubChem.
AID504770: E. coli YBA685 growth inhibition, screen for V. cholerae RctB inhibitors; E. coli YBA685 rctB-dependent plasmid, OD600 growth, 3 h; stronger effect = lower value; actives 0.27% (n = 130,000); AID 504770; z-score (no concentration beside the values);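 active means z-score under -2 on both plates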;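 further: wells of about 30 µL received 100 nL stock; score is relative to mean and SD of the test wells; the first replicate is given; strong numbers were not always called active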
Ba CapD inh: inhibitors of Bacillus anthracis CapD enzyme. purified CapD enzyme, fluorescence intensity read-out; stronger effect = lower value; some hits fall short of the stated cut. z-score (no concentration beside the values). actives 0.23% (n = 140,000). AID 492967;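 active means z-score under -4 in either of two replicates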;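 further: stock transfer was 100 nL into about 40 µL; score is relative to mean and spread of the plate; one replicate is shown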
* = called active by the depositor; x = not tested or not shown; & = joins results of further samples.

Order of results – AID504770, Ba CapD inh
O=C1c2ccccc2C(=O)N1CC1c2ccccc2CCN1S(=O)(=O)c1ccc(F)cc1F (centres undefined)
 : x, -1.9
COC(=O)C(C)Sc1nnc(-c2ccc(Br)cc2)o1 (centres undefined)
 : -0.8, -0.15
Cc1nn(CCCC(=O)N2CCCCC2)c(=O)c2c1sc1ccccc12
 : 0.45, 8.54
C=CCn1c(C(CC)CC(C)(C)O)n[nH]c1=S (centres undefined)
 : -0.35&2.5, 0.09
Cc1cccc(N2C(=O)NC3CC2(C)Oc2ccccc23)c1 (centres undefined)
 : -0.05, 3.27
S=C(N/N=C/c1ccc2c(c1)OCO2)NC1CC2CCC1C2 (centres undefined)
 : x, 0.09
COc1cc(C(=O)NNC(=O)OCc2ccc(F)cc2Cl)ccc1O
 : x, 0.135
CCc1cc2c(=O)c(-c3nc(C)cs3)c(C(=O)O)oc2cc1O
 : 2.05, 5.35
O=C(Nc1ccc(F)cc1F)NN1CCOCC1
 : 0.1, -0.12
C=COC(=O)CSc1nc(-c2ccccc2)cc(-c2ccc(OC)cc2)c1C#N
 : x, 1.44
c1ccc(CCNc2nsc3ccccc23)cc1
 : -0.6, x
O=C(CSc1nc2ccccc2s1)N1CCN(CCO)CC1
 : 0.4, 0.295
Cc1ccc(S(=O)(=O)N2CCOCC2)cc1
 : -0.4, 0.085
C=CCNC(=O)c1ccc(C(F)(F)F)nc1C
 : 0.7, 2.04
O=[N+]([O-])c1ccc(Oc2cccc(C(F)(F)F)c2)nc1
 : x, -0.585
O=C(O)c1ccccc1C(=O)Nc1ccccc1F
 : -1.05, -0.4
CCOc1cc2c(cc1OCC)C1C(C(=O)N3CCCC3)c3ccccc3C(=O)N1CC2 (centres undefined)
 : -0.8, 0.445
CN(C(=O)CCN1C(=O)C(C)(C)Nc2ccccc21)c1ccccc1
 : -0.5, -0.27
CCOC(=O)CC1Sc2ccccc2NC1=S (centres undefined)
 : x, -1.18
COc1ccc(CN2CCN(C(=O)c3ccccc3F)CC2)cc1OC
 : -1.15, -0.325
CSc1nc(=O)cc(N)n1-c1ccccc1
 : -0.5, x
COc1ccc(-c2csc(C(=O)Nc3cccc(C(F)(F)F)c3)c2)cc1
 : x, -0.355
CCCC(=O)Nc1ccc2c(c1)ncn2CC
 : -0.7, -0.275
CC(=O)OCC(=O)c1ccc2ccn(C(C)=O)c2c1
 : -0.35, 7.04
C=CCc1cccc(/C=N/c2oc(-c3ccccc3)c(-c3ccccc3)c2C#N)c1OC
 : x, 1.05
O=C(/C=C/c1ccccc1)Nc1ncnc2sc3c(c12)CCC3
 : -0.65, 0.33
COc1ccc(C(=O)NCCNc2nc3c(C)cccc3cc2C#N)cc1OC
 : -0.55, x
CC1Cc2ccccc2N1C(=O)/C=C/c1cccc(F)c1 (centres undefined)
 : 0.1, x
NNC(=O)CC1Sc2ccccc2NC1=O (centres undefined)
 : x, 1.06
Cc1ccccc1S(=O)(=O)Cc1ccc(C(=O)NC(C)c2ccccc2)o1 (centres undefined)
 : -0.4, 30.6
O=C1CC(c2ccccc2)CC2=C1C(c1ccccc1)Nc1ccccc1N2 (centres undefined)
 : -0.7, -2.15
CCOc1ccc(CCNC(=O)CN2CCN(Cc3ccccc3F)C2=O)cc1OCC
 : -0.35, 0.02
CNC(=O)c1cnn(-c2c(Cl)cc(Cl)cc2Cl)c1COC
 : x, -0.34
O=S(=O)(c1ccccc1C(F)(F)F)N1C=CC(C(F)(F)F)=NCC1
 : -1, -0.245
COc1ccc(-c2cnc(=O)n(Cc3ccccc3)c2)cc1
 : x, 1.62
Cc1ccc(C(=O)COc2cccc(-c3cnc4ccccc4n3)c2)cc1
 : 0.25, 0.33
O=C1CC(c2nc3ccccc3[nH]2)CN1c1ccc(F)cc1 (centres undefined)
 : -0.6, -0.525
CS(=O)(=O)c1ccc2[nH]c(C(=O)NCCN3CCOCC3)cc2c1
 : x, -0.335
COc1cc(-n2cnc3cc(C(=O)NCCc4ccccc4)ccc32)cc(OC)c1OC
 : x, -0.045
Cc1ccc(C)c(NCC(=O)NC2CCCCC2)c1
 : 0.8, x
COc1cccc(C2CC(=O)Nc3cc4c(cc32)OCO4)c1 (centres undefined)
 : 0.15, 0.025
Oc1c(/C=N/n2cnnc2)sc2ccccc12
 : -0.15, -1.88
Cc1ccc(C(=O)N/C(=C\c2ccco2)C(=O)N(C)C)cc1
 : -0.05, -1.73
CN(C)c1ccc(C(CNC(=O)c2ccccc2)N(C)C)cc1 (centres undefined)
 : -1.7, -1.08
O=c1c2c3c(sc2ncn1/N=C/c1cc(Br)ccc1O)CCCC3
 : 2.35, 0.175
O=C(Nc1ccc(C2SCCS2)cc1)c1ccccc1F
 : x, 0.63
CC(C)c1ncc(C(O)c2cccc3ccccc23)n1C (centres undefined)
 : 0, x
CN(C(=O)c1cc(-c2ccc(Cl)c(Cl)c2)on1)c1ccccc1
 : 0.35, -0.025
Cc1ccc(-c2cn3c4c(=O)n(C)c(=O)n(C)c4nc3n2-c2ccccc2)cc1C
 : x, -0.35
O=C(OCCOCCN=C1NS(=O)(=O)c2ccccc21)c1ccc(Cl)cc1Cl
 : x, -0.39
N=C1S/C(=C\c2ccc(F)cc2)C(=O)N1c1nccs1
 : -0.95, x
OC12Oc3ccccc3C=C1N1CCC2CC1 (centres undefined)
 : x, 0.675
COc1ccc(CNC(=O)c2oc3ccccc3c2-n2cccc2)cc1
 : -0.45, 0.075
COc1ccc(C2Nc3cc(C(F)(F)F)c(S(N)(=O)=O)cc3S(=O)(=O)N2)cc1 (centres undefined)
 : -0.65, x
O=C(O)C1C2C=CC(C2)C1C(=O)N1CCc2ccccc21 (centres undefined)
 : 1.25, -0.3
O=C(COc1ccc([N+](=O)[O-])cc1)Nc1ncn[nH]1
 : x, -0.11
NC(CCO)c1cccc(Cl)c1 (centres undefined)
 : 0.4, 0.345
CC1CCCCN1c1ncnc2onc(-c3ccc(Cl)cc3)c12 (centres undefined)
 : 0.7, 4.4
Cc1ccc(-c2csc(CC#N)n2)cc1
 : -0.55, -0.46
O=C(Nc1nonc1-c1nc2ccccc2[nH]1)c1ccncc1
 : 0.3, 0.835

(next part)
Order of results – AID504770, Ba CapD inh
CC(C)(C)c1ccc(S(=O)(=O)Nc2cc3c4c(oc3c3ccccc23)CCC(C(C)(C)C)C4)cc1 (centres undefined)
 : x, 0.72
CCOC(=O)N1CCC(NC(=O)c2cc3nc(-c4ccc(Cl)cc4)cc(C(F)(F)F)n3n2)CC1
 : x, 0.06
N#CCCNc1ccc2c(c1)OCCO2
 : -0.7, x
CC(C)(C)c1ccc2c(c1)OCCOCCOCCO2
 : -0.5, 0.305
COC(=O)NNc1ccccc1
 : -0.25, x
NC(=O)CCS(=O)(=O)CCN1CCCCC1
 : 0.1, -0.225
CC1=C(CCC2(C)OCCO2)C(C)(C)CCC1
 : -0.7, 0.1
CC1CCN(CNC(=O)c2cc3ccccc3o2)CC1
 : -0.4, 0.945
CC1=C(C)C(=O)N(c2ccc(Cl)cc2)C1=O
 : x, 0.41
COc1ccc(CNC(=O)c2ccc(Br)o2)cc1
 : -0.7, 0.57
C=CCC1(O)C(=O)Nc2ccccc21 (centres undefined)
 : x, -0.73
CC(=O)Nc1ccc(NCC(=O)c2ccccc2)cc1
 : -0.2, -0.59
O=C(NCC1CC1)c1ccccc1NS(=O)(=O)c1cccc2nonc12
 : -0.9, -0.88
C=CCN(C(=O)CSc1nc2c(sc3ccccc32)c(=O)n1Cc1cccnc1)c1ccccc1
 : 0.85, 0.005
O=C(O)C1CCCCC1C(=O)Nc1ccc(C(=O)N2CCCCC2)cc1 (centres undefined)
 : 0.1, 0.625
COc1ccccc1NC(=O)/C=C\c1ccco1
 : -0.2, 1.04
O=C(c1cnn(-c2cccc(F)c2)c1-n1cccc1)N1CCCC1
 : -0.2, 0.015
CC(c1n[nH]c(=S)n1-c1ccccc1)N(C)C (centres undefined)
 : -0.7, x
CC(C)(C)OC(=O)N1CCC(C(=O)OCC(=O)Nc2ccc(F)cc2)CC1
 : 1.55, x
CC1CCN(c2nc(Nc3ccccc3)c3cnn(C)c3n2)CC1
 : -1.05, 7.14
Cc1ccc(NC(=O)/C=N/O)cc1
 : -0.1, 0.17
COc1ccc(CNC(=O)Cn2c(C(F)(F)F)nc3ccccc32)cc1
 : x, 0.005
COc1ccc2nc(NC(=O)c3ccc(C)cc3)sc2c1
 : 0.1, x
Cc1ccc(C(=O)CN2C(=O)CCC2=O)cc1
 : -0.2, 0.505
O=S(=O)(NCCCCc1ccccc1)c1cccc2nonc12
 : x, -0.06
Clc1ccc(-c2nnc(CN(CCOc3cc(Cl)ccc3Cl)C3CC3)o2)cc1
 : -0.8, x
CCc1cc(C(=O)OCC(=O)Nc2ccc(C)cc2C)c2ccccc2n1
 : 0.6, 0.065
CC12c3ccccc3C(c3ccccc31)C1C(=O)N(Cc3ccccc3)C(=O)C12 (centres undefined)
 : x, 0.7
COc1ccc(N2CCN(c3ncnc4c3cnn4-c3ccc(Cl)cc3)CC2)cc1
 : x, -0.375
N#Cc1cccc(OCC(=O)C23CC4CC(CC(C4)C2)C3)c1
 : -0.75, x

Four of the compounds above, as labelled records:
mol: Cc1ccc(C(=O)CN2C(=O)CCC2=O)cc1
  AID504770: -0.2	Ba CapD inh: 0.505

mol: O=S(=O)(NCCCCc1ccccc1)c1cccc2nonc12
  AID504770: x	Ba CapD inh: -0.06

mol: Clc1ccc(-c2nnc(CN(CCOc3cc(Cl)ccc3Cl)C3CC3)o2)cc1
  AID504770: -0.8	Ba CapD inh: x

mol: CCc1cc(C(=O)OCC(=O)Nc2ccc(C)cc2C)c2ccccc2n1
  AID504770: 0.6	Ba CapD inh: 0.065

Following part.
Order of results – AID504770, Ba CapD inh
CCCCCCc1c(O)nc(SCCN(CC)CC)n(-c2ccccc2)c1=O
 : 0.75, 0.365
FC(F)(F)c1cccc(NC(=S)N2CCCCC2)c1
 : -0.3, -0.515
O=C(CSc1nc(-c2ccccc2)nc2c1CCCC2)N/N=C/c1ccco1
 : 0.55, 0.615
COc1ccc(-c2nc3ccc(Cl)cc3n2OCc2ccccc2Cl)cc1
 : x, -0.265
CC(C)C(NC(=O)Cc1c[nH]c2ccccc12)C(=O)N1CCC(O)(c2ccc(Cl)cc2)CC1 (centres undefined)
 : x, 0.5
Cc1ccccc1CNC(=O)c1cc2cccc3c2n1CCO3
 : 0.6, 54.9
Cc1sc2nc(COC(=O)c3ccc(S(=O)(=O)NCc4ccco4)cc3)[nH]c(=O)c2c1C
 : 2.1, x
c1cncc(-c2ncc(-c3cnccn3)c(-c3cccnc3)n2)c1
 : x, -0.41
COc1cccc(NC(=S)C(C#N)C(=O)N2CCCC2)c1 (centres undefined)
 : x, -1.34
O=C(Cc1ccccc1)c1ccc(O)cc1
 : -0.6, -0.055
CC(NCc1ccc(Cl)cc1)=C(C#N)C#N
 : 0.8, x
CCN(c1ccccc1)S(=O)(=O)c1cccc2nonc12
 : x, -0.035
Cc1c(S(=O)(=O)c2ccc(Cl)cc2)csc1S(=O)(=O)N1CCCCC1
 : -0.3, -0.16
CCn1cc(C(=O)OC)c(=O)c2cc(C(F)(F)F)ccc21
 : 0.05, -0.25
CCOC(=O)c1c(C)n(-c2ccc(OCC)cc2)c2ccc(OC(=O)COc3ccccc3)cc12
 : x, -0.28
Cc1ccccc1Oc1ccc2noc3c2c1C(=O)c1ccccc1-3
 : x, -0.23
CCN(Cn1ncn(C)c1=S)C1CCCCC1
 : -0.15, x
CCOC(=O)c1c(NC(=O)c2cc3cc(OC)ccc3oc2=O)sc2c1CCCC2
 : x, 0.415
O=c1cc(C(F)(F)F)c2ccc(O)cc2o1
 : x, 14.3
CCCSc1nnc(-c2ccc(Cl)cc2)n1Cc1ccco1
 : -0.4, x
O=C(CN1C(=O)c2ccccc2S1(=O)=O)N1CCC(Cc2ccccc2)CC1
 : 0.8, 0.145
COc1cccc(N2C(=O)Nc3ccccc3C2(O)C(=O)NC2CCCCCCC2)c1 (centres undefined)
 : -0.65, 0.455
Cc1ccc(S(=O)(=O)NCCc2c[nH]c3ccc(Cl)cc23)cc1[N+](=O)[O-]
 : x, 0.16
O=c1/c(=C/c2cccc(Cl)c2)sc2nnc(-c3ccccc3)n12
 : x, -0.31
Cc1ccc(C(=O)c2[nH]c(=O)c3ccccc3c2O)c(C)c1
 : 0.35, -1.18
CCOC(=O)c1cnc(SCC(=O)Nn2c(C)nc3sc(C)cc3c2=O)nc1N
 : -0.5, -0.72
CCC(C)NC(=O)c1nn2c(c1Cl)NC(c1ccc(OC)cc1)CC2C(F)(F)F (centres undefined)
 : 0.05, 0.64
O=C(Nc1ccc(S(=O)(=O)N2CCOCC2)cc1)c1cc2ccccc2o1
 : -0.25, x
CC(=O)Nc1ccc(C2Nc3ccc(C)cc3O2)cc1 (centres undefined)
 : -1.5, 1.96
CCCCCC(=O)N1c2ccccc2NC2=C(C(=O)CC(c3cccc([N+](=O)[O-])c3)C2)C1c1ccco1 (centres undefined)
 : x, -0.875
Cc1cccc(-n2c(-c3ccco3)nc3ccccc3c2=O)c1
 : -0.3, x
O=C(NCc1cccs1)c1nc2ncccn2n1
 : -0.5, -0.31
O=C1Nc2ccccc2C12CC(c1ccc(F)cc1)=NC(=S)N2c1ccc(F)cc1 (centres undefined)
 : -0.15, 0.265

These rows are one share of the data. The share of hits here may be higher or lower than overall.
